Arbovirus anti: blocks arbovirus infection; 200,000 compounds, 0.37% hits; arbovirus infection cell-based antiviral screen; inhibition, % at 10 µM;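 active = inhibition from about 30%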;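 also: bluetongue infection of BSR cells; cell survival read as ATP light after 72 h; 0% = infected wells without compound and 100% = uninfected wells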
Mtb growth: M. tuberculosis H37Rv growth inhibitors, H37Rv strain (AID 1626). 220,000 compounds, 0.95% hits. inhibition, % at 10 µM; hits with a dose series show IC50 in µM. M. tuberculosis H37Rv growth inhibition; higher % means a stronger effect;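 active = confirmed in a dose series; inconclusive = inhibition above 80% but not taken into the dose series; inactive = below 80% or under 30% at every dose of the series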;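 also: bacteria incubated seven days before Alamar blue readout; 0% = bacteria only wells and 100% = bacteria with antibiotic wells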
YopH inh: blocks Yersinia enterocolitica YopH tyrosine phosphatase | fluorescence Ex485/Em525 | inhibition, %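 (about 10 µM by stock and volumes)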 | 140,000 compounds, 0.16% hits | AID 898;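 active = inhibition of 50% or more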;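 also: controls were vehicle for no effect and minimum signal wells for full effect; inactives centre near -20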
RecA splice inh: Mtb RecA intein splicing inhibition; P9WHJ3; cell-free RecA intein splicing, fluorescence; inhibition, %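 (about 9 µM by stock and volumes)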; 290,000 compounds, 0.75% hits; in the data active = inhibition above about 30%; inconclusive = no clear call, values can overlap the other calls;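 also: 0% = vehicle wells and 100% = reference inhibitor control wells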
Target sequence (P9WHJ3 whole entry, looked up, canonical isoform): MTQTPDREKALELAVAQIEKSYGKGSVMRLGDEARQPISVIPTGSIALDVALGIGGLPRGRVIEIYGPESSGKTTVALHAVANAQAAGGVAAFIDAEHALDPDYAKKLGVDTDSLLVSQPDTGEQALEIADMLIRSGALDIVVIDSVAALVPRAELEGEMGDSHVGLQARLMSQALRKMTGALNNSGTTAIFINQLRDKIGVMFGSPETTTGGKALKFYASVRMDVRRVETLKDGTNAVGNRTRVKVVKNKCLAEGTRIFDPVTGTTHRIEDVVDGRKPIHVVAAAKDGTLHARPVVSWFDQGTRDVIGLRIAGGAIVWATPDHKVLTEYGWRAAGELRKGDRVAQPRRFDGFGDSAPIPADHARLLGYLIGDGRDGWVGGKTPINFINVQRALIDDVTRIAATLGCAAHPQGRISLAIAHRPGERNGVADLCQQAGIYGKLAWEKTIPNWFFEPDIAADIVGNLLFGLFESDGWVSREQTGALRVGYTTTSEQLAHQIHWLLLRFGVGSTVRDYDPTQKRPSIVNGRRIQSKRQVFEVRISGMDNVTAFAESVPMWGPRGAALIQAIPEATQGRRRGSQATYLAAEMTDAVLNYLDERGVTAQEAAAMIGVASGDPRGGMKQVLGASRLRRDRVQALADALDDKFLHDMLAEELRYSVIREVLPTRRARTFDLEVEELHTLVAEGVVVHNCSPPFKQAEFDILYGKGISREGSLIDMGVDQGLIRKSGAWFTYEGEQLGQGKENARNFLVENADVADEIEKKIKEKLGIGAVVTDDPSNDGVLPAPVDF
Mtb bLac sens: beta-lactam sensitization of Mtb H37Rv; M. tuberculosis H37Rv growth with meropenem, percent inhibition; hits of this screen are not shown here; inhibition, % at 25 µM; 330,000 compounds, 0.27% hits;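 active = about 74% or more and at least 40 points above the plate without the antibiotic, then above 30% in a dose series; inconclusive = first-round hits that could not be retested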;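 also: growth measured after seven days incubation then overnight dye step; 0% = bacteria only wells and 100% = bacteria with antibiotic; twin plates without the antibiotic show which effects depend on it; some results filed as inactive read as strong as hits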
Arbovirus anti repeat: also measured in Arbovirus anti; calls as there; inhibition, %; measured here: 10K subset replicate screen; many hits read low in the repeat;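 first of two repeat runs on a subset; 0% = infected and 100% = uninfected wells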
* = called active by the depositor; ? = inconclusive; / = not tested or not shown.

SMILES | Arbovirus anti | Mtb growth | YopH inh | RecA splice inh | Mtb bLac sens | others
Cc1c(N2C(=O)C3C4C=CC(C4)C3C2=O)c(=O)n(-c2ccccc2)n1C (centres undefined) | / | -6% | / | -2.1 | -10
CCN1CCN(C(=O)c2ccc(OC3CCN(CCc4ccccc4)CC3)cc2)[C@@H](C)C1=O | / | / | / | -4.3 | -21
COc1ccc(C(=O)NNC(=O)Cc2ccc(-c3ccccc3)cc2)cc1OC | 0 | -5% | -20 | -1.9 | -2
CCOc1ccc(OCC)c(NC(=O)c2nnn(CC(=O)Nc3cc(C)cc(C)c3)c2N)c1 | / | / | / | -2.5 | 4
CCCC(C)NC(=O)COC(=O)c1ccc2c(c1)C(=O)N(Cc1ccco1)C2=O (centres undefined) | / | / | / | -2.0 | 6
O=C1CNC(=O)/C(=C\c2ccccc2)N1 | / | / | / | -1.2 | -2
CC(=O)Nc1nonc1-c1nc2ccccc2n1C | / | / | / | -2.4 | 2
Cc1nc(C)c(-c2csc(Nc3ccc(O)c(C(=O)O)c3)n2)s1 | / | / | / | -2.8 | -2
O=C(NC(=S)Nc1cc(S(=O)(=O)N2CCOCC2)ccc1O)c1ccco1 | -7 | -6% | / | -5.0 | 0
NNC(=O)c1cc(Br)cs1 | -3 | 4% | -21 | -0.1 | 15
O=C(NCc1ccco1)C1CCCN(S(=O)(=O)c2cccc3nsnc23)C1 (centres undefined) | 4 | -6% | -31 | -2.5 | -7
CCCCCCCCn1ccc(=N)cc1 | / | 10% | / | 0.4 | -16
COc1ccc(-c2nnn(CC(=O)NC3CCCc4ccccc43)n2)cc1OC (centres undefined) | / | -4% | -39 | 0.9 | 4
CNc1ccc(/C=C2\CSc3ccccc3C2=O)cc1[N+](=O)[O-] | -10 | -1% | / | 3.3 | 10
CCOC(=O)c1c(NC(=O)COC(=O)Cn2cnc3ccccc32)sc2c1CCC(C)C2 (centres undefined) | -23 | 8% | 3 | / | -6
O=C(NC1CCCC1)c1ccc(Br)s1 | -1 | 4% | -51 | -2.0 | 17
CCC(C)(C)n1nnnc1C(c1cccnc1)N1CCCc2ccccc21 (centres undefined) | -7 | -4% | -31 | -0.3 | -6
O=C(Nc1cccc(NC(=O)c2cccnc2)c1)c1ccccc1 | / | / | / | -1.9 | -14
CCN1C(=O)c2ccccc2S(=O)c2ccc(C(=O)NC3CC3)cc21 (centres undefined) | 6 | -6% | -15 | -2.6 | 6 | Arbovirus anti repeat=5
O=C(NC1CC1)c1ccc2c(c1)ncn2C1CCCC1 | 9 | -2% | -27 | 0.8 | 3
O=C(CCc1c[nH]c2ccccc12)OCc1cccc([N+](=O)[O-])c1 | / | / | / | 0.7 | 99
CCOc1ccc(S(=O)(=O)N2CCC(C(=O)N3CCCCCC3)CC2)cc1Cl | / | / | / | 3.8 | -1
C/C(=N/NC(=O)c1cccs1)c1cccs1 | / | 2% | / | 1.8 | 1
COc1cccc(C(=O)Nc2nc3c(c(=O)[nH]2)CCCC3)c1 | -7 | -12% | -12 | 0.9 | 28
CC1CN(Cc2nc3c(c(=O)n(C)c(=O)n3C)n2CC(=O)c2ccccc2)CC(C)O1 (centres undefined) | 1 | -4% | 14 | 2.4 | -3

2 consecutive compounds already listed, for reference:
SMILES | Arbovirus anti | Mtb growth | YopH inh | RecA splice inh | Mtb bLac sens | others
Cc1c(N2C(=O)C3C4C=CC(C4)C3C2=O)c(=O)n(-c2ccccc2)n1C (centres undefined) | / | -6% | / | -2.1 | -10
CCN1CCN(C(=O)c2ccc(OC3CCN(CCc4ccccc4)CC3)cc2)[C@@H](C)C1=O | / | / | / | -4.3 | -21

Other structures follow:
SMILES | Arbovirus anti | Mtb growth | YopH inh | RecA splice inh | Mtb bLac sens | others
COC(=O)Cn1c(=O)sc2ccccc21 | 3 | 0% | -27 | 2.6 | -12
COc1ccc(S(=O)(=O)Nc2ccccc2C(=O)N2CCOCC2)cc1F | / | / | / | -0.2 | -3
COc1nc(C)ccc1-c1noc(-c2cccs2)n1 | / | 0% | / | 1.4 | -7
COc1ccc(OC)c(NS(=O)(=O)c2c(C(=O)N3CCCCCC3)c(C)n(C)c2C)c1 | / | / | / | -2.3 | 7
Cc1ccc(-n2ncc3c2CC(C)(C)CC3NC(=O)CCc2c(C)noc2C)cc1 (centres undefined) | / | / | / | -0.2 | 5
Cc1ccc(S(=O)(=O)NC(Cc2cnc[nH]2)C(=O)O)cc1 (centres undefined) | 4 | -7% | -22 | -0.8 | -11
CCN1CCN(C(=O)c2ccc3nc(-c4ccccc4)c(-c4ccccc4)nc3c2)CC1 | / | / | / | 2.0 | -1
CC1CCCC(NC(=O)CCNC(=O)c2ccc(Cl)cc2)C1C (centres undefined) | / | / | / | -3.0 | -20
COc1ccccc1OCCNC(=O)C(CCSC)NS(=O)(=O)c1ccccc1F (centres undefined) | / | / | / | 1.2 | -6
CN1CSC(=S)N(C)C1 | -4 | -4% | -15 | 2.2 | 92 | Arbovirus anti repeat=-2
O=C(OCC(=O)C12CC3CC(CC(C3)C1)C2)c1cccnc1Cl | 11 | 19% | -28 | 1.7 | -8
CSc1ccc(CN(C)C(=O)C(c2ccccc2)c2ccccc2)cc1 | / | / | / | 19 | -8
Cc1cc(Cl)ccc1OCCCC(=O)Nc1ccc(S(=O)(=O)Nc2ncccn2)cc1 | / | / | / | 3.2 | -1
O=C(O)Cc1ccc(C(=O)c2cccs2)s1 | -4 | -1% | -27 | 1.7 | 14
Cc1ccc(NC(=O)CSc2nnc(C)c(=O)n2N)cc1Cl | / | / | / | 0.8 | 2
O=C(O)c1cccc(N/N=C/c2cccc3ccccc23)c1 | / | / | / | -1.7 | 3
CC1Oc2ccccc2N(CC(=O)NC2CC2)C1=O (centres undefined) | / | / | / | 2.8 | 3
O=C(Oc1cc2oc(=O)cc(-c3ccccc3)c2cc1Cl)C1CCCCC1 | -31 | 2% | 3 | -47 | -18
COc1cccc(C2c3[nH]c4ccccc4c3C[C@H]3C(=O)N(c4ccccc4C(=O)N4CCC(C(=O)O)CC4)C(=O)N23)c1 (some centres undefined) | / | / | / | -5.4 | -8
CC(C)(C)P(=O)(N1CCOCC1)N1CCOCC1 | 3 | -1% | / | -0.7 | -11
CCOC(=O)N1CCN(c2c(F)cc3[nH]c(=S)[nH]c3c2Br)CC1 | -13 | 12% | -42 | 3.3 | ?
Cc1nnc(N2CCOCC2)c2nn(-c3cccc(Cl)c3)c(C)c12 | -3 | 7% | -14 | -2.7 | -1
COC(=O)c1c(-c2ccc(C(C)(C)C)cc2)csc1NC(=O)C1C2CCC(O2)C1C(=O)O (centres undefined) | -6 | 7% | -17 | 5.3 | 8
COc1ccc(C(=O)COC(=O)Cn2nnc3ccccc32)cc1Br | -1 | -16% | -7 | 2.2 | 3
COc1ccccc1NC(=O)c1ccc(S(=O)(=O)N2CCC(C)CC2)cc1 | / | / | / | 3.8 | 5
SMILES | Arbovirus anti | Mtb growth | YopH inh | RecA splice inh | Mtb bLac sens | others
Cn1c(-c2csc(-c3ccccc3)n2)n[nH]c1=S | -1 | 56% | / | -6.9 | -2
COC(=O)Nc1nnc(CC(=O)Nc2ccccc2C)s1 | 2 | 1% | -7 | 4.1 | -4
O=C1c2ccccc2S(=O)(=O)c2cc(C(=O)N3CCN(C(=O)c4ccccc4)CC3)ccc21 | / | -2% | / | -1.5 | 9
CC(=O)Oc1ccccc1/C=C/c1nc2ccccc2c(=O)o1 | / | / | / | -81 | 55
C/C(CC(=O)NCc1ccco1)=N\NC(=O)COc1ccc(C)cc1 | 5 | 2% | -4 | 1.8 | -3
CN(C)CCC(=O)C(Cc1ccccc1)c1ccccc1 (centres undefined) | / | / | / | 5.7 | 88
CCOC(=O)C1C(CC)NC(=S)NC1(C)O (centres undefined) | 10 | 7% | / | 0.5 | -5
Cc1cccnc1NC(=O)Cn1nc(-c2ccccc2)oc1=S | -11 | -2% | -24 | -6.4 | 3
Cc1ccc(CNC(=O)C(CCC(N)=O)NC(=O)OCc2ccccc2)cc1 (centres undefined) | 3 | 4% | -20 | -0.2 | -4
COc1ccccc1N1CCN(c2cc(=O)n(Cc3ccc(F)cc3)c(=O)[nH]2)CC1 | -15 | 12% | -27 | -0.9 | -2 | Arbovirus anti repeat=-10
Cc1occc1C(=O)Nc1cccc(/C=C/C(=O)O)c1 | / | -6% | 3 | 2.6 | 3
CC(=O)NC12CC3CC(C1)CC(C(=O)OCC(=O)c1ccc4c(c1)OCCO4)(C3)C2 | / | 13% | -3 | 2.7 | -1
O=C(C(c1ccccc1)c1ccccc1)N1CCN(Cc2ccccn2)CC1 | -3 | -3% | -19 | 4.0 | -2
CCCCN(C(=O)CNC(=O)c1cccs1)C(C(=O)NC1CCCCC1)c1cccnc1 (centres undefined) | -6 | 6% | -19 | -1.0 | -7
CC(C)c1nnc(SCC(=O)NCc2ccco2)n1C | 8 | -1% | 0 | -0.5 | 10
COc1ccc(C(=O)N/N=C/c2cc3ccccc3[nH]c2=O)cc1 | -1 | / | / | -7.5 | 12
Cc1cc(NC(=O)CC2Oc3ccccc3NC2=O)ccc1Br (centres undefined) | / | / | / | -0.6 | 0
CCCCn1c(=O)c(C(=O)Nc2nnc(C(C)C)s2)c(O)c2ccccc21 | 13 | 0.77µM* | / | 1.5 | 100
C=CCn1c(CSCc2ccccc2)nnc1SCC(=O)NCc1ccccc1 | 5 | -7% | -23 | -2.8 | -5
C=CCNC(=S)N/N=C/c1cn(C)c2ccccc12 | / | 7% | / | 5.2 | 37
CNC(=O)c1sc(-c2cccnc2)nc1C | 3 | 0% | -43 | 3.3 | -10
CCOC(=O)Cc1csc(NC(=O)CCS(=O)(=O)Cc2ccccc2)n1 | 5 | -3% | -5 | 2.4 | 0
Cc1cc(-c2nn(-c3ccccc3)cc2/C=C2\SC(N)=NC2=O)ccc1OC(C)C | -21 | 54% | -21 | -1.5 | 54
NC(CC(=O)NC(c1ccccc1)(c1ccccc1)c1ccccc1)C(=O)O (centres undefined) | -1 | 7% | / | 0.2 | 5
CCOc1ccc(NC(=O)C2CCCN(S(=O)(=O)c3ccc4[nH]c(=O)ccc4c3)C2)cc1 (centres undefined) | / | / | / | -0.4 | -4

Compounds from the list above containing a nitro group on carbon:
SMILES | Arbovirus anti | Mtb growth | YopH inh | RecA splice inh | Mtb bLac sens | others
CNc1ccc(/C=C2\CSc3ccccc3C2=O)cc1[N+](=O)[O-] | -10 | -1% | / | 3.3 | 10
O=C(CCc1c[nH]c2ccccc12)OCc1cccc([N+](=O)[O-])c1 | / | / | / | 0.7 | 99

Entries above with fluorine, in the order listed:
SMILES | Arbovirus anti | Mtb growth | YopH inh | RecA splice inh | Mtb bLac sens | others
COc1ccc(S(=O)(=O)Nc2ccccc2C(=O)N2CCOCC2)cc1F | / | / | / | -0.2 | -3
COc1ccccc1OCCNC(=O)C(CCSC)NS(=O)(=O)c1ccccc1F (centres undefined) | / | / | / | 1.2 | -6
CCOC(=O)N1CCN(c2c(F)cc3[nH]c(=S)[nH]c3c2Br)CC1 | -13 | 12% | -42 | 3.3 | ?
COc1ccccc1N1CCN(c2cc(=O)n(Cc3ccc(F)cc3)c(=O)[nH]2)CC1 | -15 | 12% | -27 | -0.9 | -2 | Arbovirus anti repeat=-10

The list continues:
SMILES | Arbovirus anti | Mtb growth | YopH inh | RecA splice inh | Mtb bLac sens | others
CCOc1ccc(C(CC(=O)O)NC(=O)COc2ccccc2OC)cc1OC (centres undefined) | 7 | -7% | / | -0.9 | 0
CCCCN(C)S(=O)(=O)c1ccc(C(=O)N=c2sc3cc(NC(C)=O)ccc3n2C)cc1 | 0 | 14% | -22 | -2.1 | -10
O=C(NCCOC(=O)c1ccc(S(=O)(=O)N2CCOCC2)cc1)c1cccnc1 | 0 | -6% | -33 | 0.2 | -13 | Arbovirus anti repeat=2
Cc1[nH]n(-c2ccccc2)c(=O)c1/C=N/N1C(=O)c2cccc3cccc(c23)C1=O | -8 | -3% | / | 4.3 | 90
O=C(Nc1ccccc1[N+](=O)[O-])C1C(c2ccccc2)=C1c1ccccc1 | 5 | -11% | -47 | 0.3 | 2
COc1cccc(C(=O)O/N=C(\N)c2ccncc2)c1 | 0 | -8% | 2 | -6.7 | ?
COC(=O)c1ccc(COC(=O)c2ccccc2OC)cc1 | -9 | 74% | -7 | -1.0 | 97

Only part of the results is shown; rates above refer to the full screens.
